# LYPLA1 counter: counter-screen for PME1 inhibitors: inhibitors of human LYPLA1 | recombinant LYPLA1, FP-Rh probe fluorescence polarization | inhibition, % at 5.9 µM | 0.16% of 320,000 active;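 active means inhibition above the mean of all tested compounds plus 3 SD, set per campaign, cut at about 14% in these data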;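 further: inhibitors block serine hydrolase probe labeling of LYPLA1 so polarization falls; 0% = enzyme with DMSO and 100% = wells lacking LYPLA1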
# Target sequence (O75608 whole entry, looked up): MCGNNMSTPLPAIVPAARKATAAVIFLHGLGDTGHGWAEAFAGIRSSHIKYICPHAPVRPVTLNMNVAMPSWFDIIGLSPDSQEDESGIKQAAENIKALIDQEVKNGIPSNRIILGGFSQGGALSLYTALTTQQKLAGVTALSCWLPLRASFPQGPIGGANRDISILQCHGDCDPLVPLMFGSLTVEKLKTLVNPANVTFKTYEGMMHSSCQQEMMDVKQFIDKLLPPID
# LYPLA2 counter: LYPLA2 (human) inhibition in PME1 counter-screen; O95372; recombinant LYPLA2, FP-Rh probe fluorescence polarization; inhibition, % at 5.9 µM; 0.38% of 320,000 active; AID 2177;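 active means inhibition above the screen-wide mean plus 3 SD, limit set per campaign, cut at about 26% in these data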;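 further: 0% = LYPLA2 with DMSO and 100% = wells lacking LYPLA2 enzyme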
# PAFAH2 FP inh: PAFAH2 (human) inhibition; Q99487; recombinant PAFAH2, FP-rhodamine activity probe, fluorescence polarization; inhibition, % at 3.39 µM; 0.99% of 340,000 active; AID 492956;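 active means inhibition above the mean over all tested compounds plus 3 SD, cut at about 30% in these data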;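 further: inhibitors block probe labeling of enzyme so polarization drops; 0% = enzyme with DMSO and 100% = wells lacking PAFAH2 protein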
# PAFAH1B3 inh: blocks human PAF acetylhydrolase 1B catalytic subunit 3. Q15102. recombinant PAFAH1B3, FP-rhodamine probe, fluorescence polarization. inhibition, % at 3.39 µM. 0.28% of 340,000 active;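 active means inhibition above the screen-wide average of all tested compounds plus 3 SD, cut at about 25% in these data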;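 further: 0% = enzyme with DMSO only and 100% = wells lacking PAFAH1B3 protein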
# PAFAH1B2 inh: PAFAH1B2 (human) inhibition | 1.2% of 340,000 active | recombinant PAFAH1B2, FP-rhodamine activity probe, fluorescence polarization | P68402 | inhibition, % at 3.39 µM;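 active means inhibition above the mean of all tested compounds plus 3 SD, cut at about 24% in these data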;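 further: 0% = enzyme with DMSO and 100% = wells lacking PAFAH1B2; many of its hits are not listed in these tables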
# Target sequence (P68402 whole entry, looked up): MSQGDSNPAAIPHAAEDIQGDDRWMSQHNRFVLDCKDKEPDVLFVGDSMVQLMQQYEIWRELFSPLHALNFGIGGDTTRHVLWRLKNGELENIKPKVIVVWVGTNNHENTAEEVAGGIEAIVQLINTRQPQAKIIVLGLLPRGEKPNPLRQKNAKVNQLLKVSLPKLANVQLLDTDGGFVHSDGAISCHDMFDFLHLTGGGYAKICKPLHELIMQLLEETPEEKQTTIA
# PAD4 FP inh: inhibitors of human PAD4; recombinant PAD4, RCA probe fluorescence polarization; inhibition, % at 6.36 µM; 0.41% of 330,000 active; AID 485272;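 active means percent inhibition above a cutoff equal to the mean of all tested compounds plus 3 SD, cut at about 15% in these data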;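 further: 0% = PAD4 with RCA probe and DMSO and 100% = probe without PAD4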
# PME-1 inh: blocks human protein phosphatase methylesterase 1. inhibition, % at 5.9 µM. 0.53% of 320,000 active. recombinant PME-1, FP-Rh probe fluorescence polarization. Q9Y570;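 active means inhibition above the campaign mean of all compounds plus 3 SD, cut at about 26% in these data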;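 further: competitive labeling of PME-1 active site by serine hydrolase directed probe; 0% = PME-1 with DMSO and 100% = wells lacking PME-1 enzyme; inhibitors block probe labeling so polarization falls and inhibition rises; many of its hits are not listed in these tables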
# Numbers without * were called inactive; nt = not tested or not shown.
SMILES,LYPLA1 counter,LYPLA2 counter,PAFAH2 FP inh,PAFAH1B3 inh,PAFAH1B2 inh,PAD4 FP inh,PME-1 inh
Cn1c(-c2ccc3c(c2)OCO3)cnc1NC(=O)CCC(=O)NCCc1ccccc1,0.4,0.8,-2.8,1.4,7.8,-1.3,1.1
Cc1ccc(-c2cnc(NC(=O)CCC(=O)N3CCCCC3)n2C)cc1,4.2,3.8,-6.2,8.4,0.2,4.0,1.1
Nc1c(-c2ccc(F)cc2)cnn1C1CCS(=O)(=O)C1 (centres undefined),-1.0,3.5,-5.7,5.3,-1.9,1.6,-0.5
Cc1c(Cl)cccc1N1C(=O)CC(N(O)c2ccccc2)C1=O (centres undefined),1.6,4.2,3.6,3.1,-1.1,-18.5,-3.5
O=C1COc2ccc(S(=O)(=O)Nc3ccc(OC(F)(F)F)cc3)cc2N1,12.4,10.4,2.4,8.0,41.6*,-0.7,11.8
Cc1cc(C)c(NC(=S)NC(NC(=O)c2ccccc2)C(Cl)(Cl)Cl)c(C)c1 (centres undefined),-4.9,-1.6,2.4,0.3,-8.0,-1.2,-3.5
Cc1cccc(C)c1N1C(=O)CC(N(O)c2ccccc2)C1=O (centres undefined),1.2,7.1,-2.4,-1.6,-1.6,-7.7,-10.2
O=C(c1ccc2c(c1)OCO2)N1CCN=C1SCc1ccccc1,3.7,6.4,7.4,11.5,6.1,2.2,4.4
COc1cccc(C(=O)Nc2cccc(OC(C)=O)c2)c1,2.1,0.7,-0.7,5.2,-0.1,-4.4,-0.3
CN(C)/C=C/C(=O)c1ccc(N2CCN(c3ncc(C(F)(F)F)cc3Cl)CC2)cc1,1.1,7.6,15.7,8.4,1.3,2.9,-2.1
Cn1c(=O)c2c(ncn2CC(=O)N2CCN(c3ccccc3F)CC2)n(C)c1=O,0.8,-3.6,3.6,4.6,2.6,-0.1,-2.0
CC(/C=N/n1c(-c2cccnc2)n[nH]c1=S)=C\c1ccccc1,2.4,-1.8,-0.5,10.1,-1.8,4.5,8.5

# Brought forward from above: 6 entries, then new ones.
SMILES,LYPLA1 counter,LYPLA2 counter,PAFAH2 FP inh,PAFAH1B3 inh,PAFAH1B2 inh,PAD4 FP inh,PME-1 inh
Cc1cccc(C)c1N1C(=O)CC(N(O)c2ccccc2)C1=O (centres undefined),1.2,7.1,-2.4,-1.6,-1.6,-7.7,-10.2
O=C(c1ccc2c(c1)OCO2)N1CCN=C1SCc1ccccc1,3.7,6.4,7.4,11.5,6.1,2.2,4.4
COc1cccc(C(=O)Nc2cccc(OC(C)=O)c2)c1,2.1,0.7,-0.7,5.2,-0.1,-4.4,-0.3
CN(C)/C=C/C(=O)c1ccc(N2CCN(c3ncc(C(F)(F)F)cc3Cl)CC2)cc1,1.1,7.6,15.7,8.4,1.3,2.9,-2.1
Cn1c(=O)c2c(ncn2CC(=O)N2CCN(c3ccccc3F)CC2)n(C)c1=O,0.8,-3.6,3.6,4.6,2.6,-0.1,-2.0
CC(/C=N/n1c(-c2cccnc2)n[nH]c1=S)=C\c1ccccc1,2.4,-1.8,-0.5,10.1,-1.8,4.5,8.5
c1ccc(-c2nc(NCC3CCCO3)c3ccccc3n2)nc1 (centres undefined),-1.2,2.2,-4.4,3.7,3.0,-1.8,0.1
Oc1ccccc1-c1nc(NCC2CCCO2)c2ccccc2n1 (centres undefined),-7.3,-6.6,-6.5,13.8,1.8,-4.7,22.5
Cc1ccc(NC(=O)OCC(F)(F)C(F)F)cc1NC(=O)OCC(F)(F)C(F)F,-9.1,-4.1,-7.5,5.6,5.3,-3.1,-6.6
O=c1c2cc(Cl)cc(Cl)c2nc2n1CCC2,2.7,4.6,-3.6,7.2,2.3,-7.5,-4.5
c1ccc2c(NCC3CCCO3)nc(-c3ccncc3)nc2c1 (centres undefined),2.6,-3.2,0.5,-2.0,-3.0,-2.5,-1.8
COc1cc2c(cc1OC)CN(C(=O)CSc1nc3[nH]ncc3c(=O)n1-c1ccccc1)CC2,-3.1,0.1,nt,nt,nt,2.0,1.4
Cc1ccc(S(=O)(=O)N(C)C)cc1N,1.1,5.1,-0.4,2.6,0.2,-4.2,-1.6
O=C(NCCc1c[nH]c2ccccc12)c1cnc2sccn2c1=O,3.3,5.5,-2.9,-4.5,-3.9,-2.8,2.5
Nc1c(-c2ccc(Cl)cc2)cnn1C1CCS(=O)(=O)C1 (centres undefined),0.7,4.0,-0.3,5.1,2.4,0.3,-0.5
C=C1c2c(Cl)ccc(O)c2C(O)=C2C(=O)[C@]3(O)C(O)=C(C(N)=O)C(=O)[C@@H](N(C)C)[C@@H]3[C@@H](O)C12 (some centres undefined),2.6,12.4,42.0*,32.6*,15.3,-5.0,-0.2
O=C(O)c1cc(O)ccc1-c1ccc(O)cc1,-0.7,3.6,-4.5,10.7,5.0,-2.1,-0.5
CCCNC(=O)CCC(=O)Nc1ncc(-c2ccc(C)cc2)n1C,-0.5,2.5,-7.5,1.9,5.1,-3.5,4.5
COc1nc(NC(C)=O)nc(C)c1Br,1.1,-0.9,nt,nt,nt,6.1,-1.7

# Bioassay records deposited in PubChem by The Scripps Research Institute Molecular Screening Center.

# The list is partial; rates above refer to the full screens.
